Source: PubChem
HTT prom inh – Primary qHTS for Identification of Small Molecule Inhibitors of Huntingtin Promoter Activity | HEK293 HTT promoter firefly luciferase reporter (activity 0% = vehicle and -100% = no light), 24 h | Potency, µM (doses to about 57.5 µM), without a hit: at the top dose activity change, negative = inhibition, hits mostly inhibitors | 48,000 compounds, 0.93% hits | AID 1508623, 2021; active = well fitted inhibition curve with a large enough effect; inconclusive = small, poorly fitted or top-dose-only effect; inactive = no such curve, though single readings can be large or run the other way; note: nearly all actives have a fitted effect of over 50% in size
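Quantitative HTS used concentration series of up to 57.5 uM final on HEK293 luciferase reporter cells, 24 h at 37 degrees C. Readout was Dual-Glo firefly luminescence.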
PMP22 txn – Cell-based coincidence reporter assay to measure PMP22 gene transcription in S16 Pmp22-F2sN cells - Primary screen; S16 Pmp22-F2sN Schwann cells (luciferase reporters placed in the Pmp22 gene), FLuc/NLuc coincidence luminescence, 24 h; AID 1508649, 2021; 43,000 compounds, 2% hits; Potency, µM (top dose mostly 57.5 µM), without a hit: top-dose activity change, negative = inhibition, hits mostly inhibitors; active = clear falling dose curves in both reporters; inconclusive = both reporters move, but less clearly or upward; inactive = either reporter flat; the % is the NLuc reporter signal; note: % is set by controls: 0 for no effect and ±100 for the full control effect; some results filed as inactive show a strong effect at the top dose
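qHTS, 1536-well. Cells seeded, compounds added by pin tool, 24 h 37C. Nano-Glo reagent 1 (lysis/FLuc), 10 min RT, read; Stop&Glo, 10 min RT, read NLuc.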
* hit, by the source's call; ? = inconclusive; nt = no result given; [ ] = dose if it differs, or a comment. Potency is the fitted concentration of half-maximal effect.

molecule | HTT prom inh | PMP22 txn
CCCCNC(=O)C1CCN(C(=O)N2CC(C)Oc3ccc(Cl)cc32)CC1 (stereo not given) | ? | -4%
COc1ccc(CNC(=O)CSc2ncc3c(n2)-c2cc(Cl)ccc2N(Cc2ccccc2)S3(=O)=O)cc1 | -9% | -7%
Cc1ccnc(NC(c2ccccc2F)c2ccc3cccnc3c2O)c1 (stereo not given) | ? | ?
CCc1ccccc1NC(=O)c1ccc(F)c(S(=O)(=O)N2CCN(c3cccc(Cl)c3)CC2)c1 | ? | -15%
Cc1cccc2c1-c1sc(C(=O)NCc3ccccc3Cl)cc1CO2 | -18% | -30%
Cc1cc(Cl)ccc1NC(=O)CSc1nc2c(c(=O)[nH]1)CCC2 | -12% | 2%
CCCNC(=O)CCc1c(C)nc2nc(-c3cc(OC)cc(OC)c3)nn2c1C | 6% | -3%
Cc1nn(-c2ccccc2)c(-n2cccc2)c1C(=O)N1CCN(c2ccccc2)CC1 | -19% | ?
CCOc1ccccc1NS(=O)(=O)c1ccc2c(c1)CC(C)N2C(=O)C1CC1 (stereo not given) | ? | ?
Cc1nc2c(C(=O)N(C)Cc3ccccc3)c[nH]n2c(=O)c1Cc1ccc(Cl)cc1 | ? | ?
CCc1cccc(C)c1Nc1c(-c2cccs2)nc2nc(C)cc(C)n12 | ? | -10%
COc1ccc(CCNC(=O)c2cnn(-c3cccc(C)c3)c2C2CCNCC2)cc1OC | -7% | -6%
CC(C)c1ccc(Nc2c(-c3ccccc3O)nc3cnccn23)cc1 | -22% | ?
CCN(CCCNC(=O)c1cc2c(=O)[nH]c3ccccc3c2s1)c1ccccc1 | -14% | ?
O=S(=O)(O)c1ccc(O)cc1 | 10% | nt
Cc1oc2cc3oc(=O)c(CC(=O)NCc4ccccc4)c(C)c3cc2c1C | -9% | -9%
CCCC(CCC)C(=O)Nc1cccc(-c2cn3cccnc3n2)c1 | -5% | -25%
CCN(C(=O)c1cc2c(=O)oc3ccc(C)cc3c2s1)c1ccccc1C | -11% | ?
O=C(NCc1ccccc1Cl)c1c2c(nc3ccccc13)C(=O)N(C1CCCCC1)C2 | -13% | ?
Cc1ccc(C)c(CSc2nnc3[nH]c(=O)cc(-c4ccccc4)n23)c1 | -8% | -55%
CC1CCN(C(=O)CN2CCSc3ccc(S(=O)(=O)N(C)C)cc32)CC1 | -20% | -21%
CC(=O)OCC#CCSc1nnc(-c2cccc(Br)c2)o1 | -2% | 9.2µM*
CCOC(=O)c1ccc(N=C2SC(C(=O)Nc3ccccc3)CC(=O)N2C)cc1 (stereo not given) | -22% | -2%
COc1ccc(CNC(=O)c2ccc(Cn3c(=O)c4cccn4c4cccnc43)cc2)cc1OC | -5% | -3%
COc1ccc(C(=O)NCC2(N3CCN(C)CC3)CCCCC2)cc1 | -10% | -7%
CCCCCn1c(=O)[nH]c2cc(C(=O)N3CCN(c4ccc(OC)cc4)CC3)ccc2c1=O | ? | ?
COC(=O)c1ccc2c(=O)n(CCCCCC(=O)N3CCN(c4cccc(C)c4C)CC3)c(=O)[nH]c2c1 | -27% | ?
Cc1ccc(-n2c3c(c(=O)[nH]c2=O)C(NC(=O)C(C)(C)C)(C(F)(F)F)C(=O)N3)cc1 (stereo not given) | -7% | 6%
CCOC(=O)c1ccc(Nc2nc3ccc(C(=O)c4ccccc4)cc3n3c(C)nnc23)cc1 | -12% | 5%
Cc1ccc(C(=O)CC2(O)C(=O)N(CCc3ccccc3)c3ccc(Cl)cc32)cc1 (stereo not given) | ? | ?
Cc1cccc(CC2C(=O)Nc3ccccc32)c1 (stereo not given) | ? | -37%
CCOc1ccc(CCNC(=O)c2cc3c(=O)oc4ccc(C)cc4c3s2)cc1OCC | -6% | -5%
Cc1ccc(NC(=O)C2CCN(c3nn4cc(-c5ccc(C)cc5)nc4s3)CC2)cc1 | 19% | -7%
CCOC(=O)C1CCCN(S(=O)(=O)c2ccc3c(c2)oc(=O)n3C)C1 (stereo not given) | -24% | -22%
Cc1cc(C(=O)N2CCN(c3ccccc3F)CC2)c2c(C)nn(-c3ccccc3)c2n1 | ? | 4%
Nc1c(-c2nc(-c3ccncc3)no2)nnn1CC(=O)Nc1ccccc1 | -11% | ?
CCC(=O)N1CCc2cc(S(=O)(=O)CCC(=O)NCc3ccccc3Cl)ccc21 | 1% | -5%
O=C(Nc1cc(Cl)cc(Cl)c1)c1ccc(F)c(S(=O)(=O)NC2CCCC2)c1 | ? | ?
CC(C)(C)OC(=O)N1CCC(c2c(C(=O)Nc3ccc4c(c3)OCCO4)cnn2-c2ccc(F)cc2F)CC1 | ? | -23%
COc1ccc(N2CCN(C(=O)CSc3c4c(nc5ccc(Cl)cc35)CCCC4)CC2)cc1 | -24% | ?
Cc1ccc(Cn2c(C)c(CNC3CCCCC3)c(C(=O)O)c2C)cc1 | -14% | ?
CCc1cnc2c(c1SCC(=O)Nc1ccc(C)cc1C)c(=O)n(C)c(=O)n2C | -3% | 33%
CCc1ccc(NC(=O)CCCc2nc(-c3ccco3)no2)cc1 | -13% | ?
CCOc1ccc(CNC(=O)C2Cc3ccccc3N2C(=O)CC)cc1OC (stereo not given) | 0% | -13%
Cc1cccc(CSCc2ccc(C(=O)NCCc3ccccc3)o2)c1 | 0% | -14%
CCCCN(C)CCNC(=O)c1ccc(Cn2c(=O)[nH]c3cc(OC)c(OC)cc3c2=O)cc1 | -3% | ?
O=S(=O)(Nc1ccc(F)cc1F)c1ccc(-n2cccn2)cc1 | ? | -26%
Cc1cc2nc(-c3ccc(Cl)cc3)cc(C(F)(F)F)n2n1 | -14% | -19%
COC(=O)c1ccc(NC(=O)CCn2cccn2)cc1 | 23% | 3%
Cc1ccsc1CN(C(=O)c1oc2ccc(Br)cc2c1C)C1CCS(=O)(=O)C1 (stereo not given) | ? | ?
O=C(CSc1nc2cc3ccccc3cc2[nH]1)Nc1cccc(C(F)(F)F)c1 | -26% | -19%
Cc1ccc(CNC(=O)c2ccc3c(c2)N(Cc2ccccc2Cl)C(=O)CS3)cc1 | -23% | ?
COc1ccc(OC)c(NC(=O)Nc2c(C)n(C)n(-c3ccccc3)c2=O)c1 | -17% | 19%
COc1ccc(NC(=O)CSc2nc(-c3ccco3)cc(C(F)(F)F)n2)c(OC)c1 | 1% | -4%
COc1ccc(Cl)cc1NC(=O)c1cnc2sc(N3CCOCC3)nn2c1=O | -2% | -4%
CCOCCCNC(=O)c1c[nH]c2ccc(S(=O)(=O)Nc3cccc(Cl)c3C)cc2c1=O | -22% | 6%
COc1ccc(-c2noc(CSc3nc(C)cc(=O)[nH]3)n2)cc1OC | -20% | 5%
CCOC(=O)c1[nH]c(C)c(CCC(=O)Nc2ccc(Br)c(C)c2)c1C | ? | -4%
CC1=C(/C=C/C(C)=C/C=C/C(C)=C/C(=O)Nc2ccc(O)cc2)C(C)(C)CCC1 | -17% | nt
Cc1cc(N2CCCCC2)nc2ccc(NC(=O)/C=C/c3ccccc3OC(C)C)cc12 | -22% | -8%

7 entries picked at random from those above, as already listed:
molecule | HTT prom inh | PMP22 txn
CCOc1ccc(CCNC(=O)c2cc3c(=O)oc4ccc(C)cc4c3s2)cc1OCC | -6% | -5%
CCOc1ccc(CNC(=O)C2Cc3ccccc3N2C(=O)CC)cc1OC (stereo not given) | 0% | -13%
Nc1c(-c2nc(-c3ccncc3)no2)nnn1CC(=O)Nc1ccccc1 | -11% | ?
Cc1cccc(CSCc2ccc(C(=O)NCCc3ccccc3)o2)c1 | 0% | -14%
Cc1ccc(NC(=O)C2CCN(c3nn4cc(-c5ccc(C)cc5)nc4s3)CC2)cc1 | 19% | -7%
COc1ccc(N2CCN(C(=O)CSc3c4c(nc5ccc(Cl)cc35)CCCC4)CC2)cc1 | -24% | ?
CCOC(=O)C1CCCN(S(=O)(=O)c2ccc3c(c2)oc(=O)n3C)C1 (stereo not given) | -24% | -22%

(more compounds)
molecule | HTT prom inh | PMP22 txn
O=C(NCCn1cc(SCc2ccc(Br)cc2)c2ccccc21)c1cccs1 | ? | ?
Cc1cc(Nc2cccc(C(F)(F)F)c2)ncn1 | -15% | 4%
CCOc1ccccc1C(=O)N1CC(=O)Nc2ccc(Cl)cc2C1c1ccccc1 (stereo not given) | ? | 9%
CCOc1ccc(NC(=O)Cn2c(=O)n(CC3CCCO3)c(=O)c3ccccc32)cc1 (stereo not given) | -11% | -19%
O=S(=O)(c1ccc2[nH]c3c(c2c1)CCCC3)N1CCN(c2cccc(C(F)(F)F)c2)CC1 | -13% | -26%
NC(=O)c1ncn([C@@H]2O[C@H](CO)[C@@H](O)[C@@H]2O)c1O | -7% | nt
O=C(COCc1cc(-c2cccs2)on1)NCc1ccc(F)cc1 | -13% | 5%
Cc1ccc(C)c(S(=O)(=O)c2nnn3c2nc(NCc2cccs2)c2sccc23)c1 | ? | ?
Cc1ccc(NC(=O)Nc2nnc(SCC(=O)N3CCC(C)CC3)s2)cc1 | ? | ?
CCN(CC)CC#CCOC(=O)C(O)(c1ccccc1)C1CCCCC1 (stereo not given) | -1% | nt
CCCCn1c(=O)n(Cc2ccccc2F)c(=O)c2[nH]c(Cc3ccc(NC(C)=O)cc3)nc21 | ? | nt
COc1cccc(C(=O)NC2=NC(c3ccc(N(C)C)cc3)CC(=O)N2)c1 (stereo not given) | 0% | -22%
CCOc1cccc(NC(=O)CSc2ncc(-c3ccc(Cl)cc3)[nH]2)c1 | -19% | 14%
Cc1cccc(NS(=O)(=O)c2ccc3c(c2)CCN3C(=O)CCC(=O)O)c1C | 6% | -1%
CCOc1ccc(CCNC(=O)C2=C(C)C(=O)OC23CCC(C)CC3)cc1OCC (stereo not given) | -8% | -23%
CCSc1ncc(Cl)c(C(=O)Nc2ccc(S(=O)(=O)N3CCCCC3)cc2)n1 | ? | -26%
CCCCN(CC)C(=O)Cn1c(=O)n(-c2ccc(OCC)cc2)c(=O)c2c3c(sc21)CCC3 | 4% | 14%
CCOc1ccccc1NC(=O)C(NS(=O)(=O)c1ccc2c(c1)CCC(=O)N2)c1ccccc1 (stereo not given) | -17% | -11%
COc1ccc(C)cc1NC(=O)CN(C)S(=O)(=O)c1ccc2c(c1)CCCN2C(C)=O | ? | -14%
Cc1ccc(/C=C/c2onc(C)c2S(=O)(=O)N2CCC(C(=O)NCc3ccc(C)o3)CC2)cc1 | -20% | -4%
Cc1ccc(NC(=O)C2CCN(S(=O)(=O)c3c(C)noc3C)CC2)cc1 | -12% | -5%
CC(=O)N1c2ccccc2CC1C(=O)N1CCN(c2ccccc2F)CC1 (stereo not given) | -23% | -15%
CCCCNC(=O)c1ccc2c(c1)NC(=O)C(CS(=O)(=O)Cc1cccc(C)c1)N2 (stereo not given) | ? | -13%
CC(=O)OCC(=O)[C@@]12OC(C)(C)O[C@H]1C[C@H]1[C@@H]3C[C@H](F)C4=CC(=O)C=C[C@]4(C)[C@@]3(F)[C@@H](O)C[C@@]12C | 6% | nt
O=C(NCc1ccc(F)cc1)c1ccc(Nc2nc3ccccc3n3nnnc23)cc1 | 1% | ?
Cc1ccc(CNc2nc(-c3ccco3)nn2S(=O)(=O)c2ccc3ccccc3c2)cc1 | 52%[activator] | ?
CCOc1ccccc1CNC(=O)c1ccc2c(c1)sc1nc(-c3cccc(OC)c3)cn12 | -8% | -10%
COc1ccc(NC(=O)Nc2ccccc2OCc2cc(=O)n3ccccc3n2)c(OC)c1 | 4% | -29%
Cc1ccc(-n2ncc3c(NC4CCCCC4)ncnc32)cc1 | ? | ?
Cc1ccccc1C(=O)NC1(C(F)(F)F)C(=O)Nc2c1c(=O)[nH]c(=O)n2CCc1ccccc1 (stereo not given) | -4% | -4%
Cc1ccc(N(C)C(=O)C2CCN(S(=O)(=O)c3ccc4c(c3)CCCN4C(=O)C3CCC3)CC2)cc1 | -5% | ?
Cc1ccc(N2C(=O)c3n[nH]c(C)c3C2c2ccc(Cl)cc2)cc1 (stereo not given) | 38%[activator] | 17%
O=c1[nH]c(SCc2c(F)cccc2Cl)nc2c1CCC2 | -16% | 6%
Cc1ccc2c(=O)cc(C(=O)Nc3sc4c(c3C(=O)NCC3CCCO3)CCCC4)oc2c1 (stereo not given) | 0% | -10%
CCS(=O)(=O)N1CC(=O)N(c2cc(C)ccc2C)C(C)(C(=O)NC2CCCCC2)C1 (stereo not given) | 7% | -20%
O=C1OC(c2ccc(O)cc2)(c2ccc(O)cc2)c2ccccc21 | -7% | nt
COc1ccc(OC)c(C2CC(=O)Nc3c2c(=O)[nH]c2ncnn32)c1 (stereo not given) | -3% | 3%
CC(=O)c1ccc(NC(=O)CSc2c(C(C)C)cnc3c2c(=O)n(C)c(=O)n3C)cc1 | -8% | ?
